Lassa entry inh: qHTS for Inhibitors of binding or entry into cells for Lassa Virus; Potency, µM (series often up to 37.9 µM), without a hit: at the highest dose activity change, negative = inhibition, most hits filed as inhibitors; Lassa virus pseudotype entry inhibition, cell reporter; control for the full effect not named in the record; 300,000 tested, 1.2% active; active means well fitted inhibition curve with a large enough effect; inconclusive means small, poorly fitted or top-dose-only effect, or effect the other way; inactive means flat fitted curve, though single readings scatter; tested in HEK293 cells; also: % is scaled to controls: 0 for no effect and ±100 for the full control effect; nearly all actives have a fitted effect of over 50% in size; luciferase read-out
StopGo reporter: High Throughput Screening for Foot and Mouth Disease Virus Antivirals. human cells with a luciferase reporter of 2A StopGo recoding; control for the full effect not named in the record. Potency, µM (highest dose often 57.9 µM), for inactives: at the top dose signal change, negative = less light. 410,000 tested, 1.2% active. AID 1159524, 2015; active = well fitted falling curve with a large enough effect; inconclusive = small, poorly fitted or top-dose-only effect; inactive = no such curve, though single readings can be large or run the other way; tested in HEK293T cells; also: % is scaled to controls: 0 for no effect and ±100 for the full control effect; nearly all actives have a fitted effect of over 45% in size; luciferase light after 4 h
Cruzain noTriton: qHTS Assay for Promiscuous and Specific Inhibitors of Cruzain (without detergent) | Cruzipain (Trypanosoma cruzi), P25779 | purified cruzain, Z-FR-AMC fluorescence, no detergent | Potency, µM, for the others: max response, negative = inhibition, usual class: inhibitors | 200,000 tested, 2.3% active | AID 1476, 2009; active = well fitted curve in the direction sought with a large enough effect; inconclusive = small, poorly fitted or top-dose-only effect, or another doubt; inactive = no such curve, though single readings can be large; an effect the other way counts as inactive or inconclusive;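 also: plate controls were enzyme without inhibitor for no effect and buffer without enzyme for full effect; nearly all actives have a fitted effect of over 40% in size; top concentration of the series not given in the record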
Target sequence (P25779 123-467 limits assumed): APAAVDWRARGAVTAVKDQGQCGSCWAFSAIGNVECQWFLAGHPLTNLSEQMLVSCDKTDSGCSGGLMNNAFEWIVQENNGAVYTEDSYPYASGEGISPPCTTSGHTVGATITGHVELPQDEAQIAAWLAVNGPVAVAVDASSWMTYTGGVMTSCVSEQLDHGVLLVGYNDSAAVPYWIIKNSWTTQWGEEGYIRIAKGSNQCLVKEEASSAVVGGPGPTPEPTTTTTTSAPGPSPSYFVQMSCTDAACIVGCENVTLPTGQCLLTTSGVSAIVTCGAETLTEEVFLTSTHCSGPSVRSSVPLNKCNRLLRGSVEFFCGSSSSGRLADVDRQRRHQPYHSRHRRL
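Detergent-free condition (0.00005% Triton X-100) in acetate buffer pH 5.5 with DTT. 1.5 nM enzyme and compound were pre-mixed 15 min, then 2 uM Z-FR-AMC substrate added; reaction progress from fluorescence change between first and third reads (60 s).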
NS1 function inh: qHTS Assay for Inhibitors of Influenza NS1 Protein Function. Potency, µM (series often up to 46.1 µM), for the others: at the highest dose activity, positive = more growth. S. cerevisiae slowed by influenza A NS1, growth recovery by OD600. 270,000 tested, 0.4% active; also: actives are rising curves; nearly all actives have a fitted effect of over 50% in size
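Growth recovery, yeast-based: influenza A NS1 expressed in S. cerevisiae causes slow growth, and suppressors are detected by OD600. The parent strain without NS1 is used as positive control.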
SARS PLpro yeast: qHTS of Yeast-based Assay for SARS-CoV PLP. Potency, µM (top dose mostly 32.9 µM), inactives show top-dose activity, positive = growth rescue. 330,000 tested, 0.19% active. S. cerevisiae expressing SARS-CoV PLpro, growth rescue; control for the full effect not named in the record; also: 0% is about no effect; nearly all actives have a fitted effect of over 55% in size; growth read by luminescence after 48 h
Cruzain inh Det: qHTS Assay for Promiscuous and Specific Inhibitors of Cruzain (with detergent); Cruzipain (Trypanosoma cruzi), P25779; purified cruzain, Z-FR-AMC fluorescence, 0.01% Triton; Potency, µM, for inactives: max response, negative = inhibition, usual class: inhibitors; 200,000 tested, 0.43% active; AID 1478, 2009; active = well fitted curve in the direction sought with a large enough effect; inconclusive = small, poorly fitted or top-dose-only effect, or another doubt; inactive = no such curve, though single readings can be large; an effect the other way counts as inactive or inconclusive;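 also: plate controls were neutral wells for no effect and buffer without enzyme for full effect; nearly all actives have a fitted effect of over 40% in size; top concentration of the series not given in the record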
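Enzyme 1.5 nM, Z-FR-AMC 2 uM, NaOAc 100 mM pH 5.5, DTT 5 mM, Triton X-100 0.01%; 15 min RT compound preincubation; kinetic ex360/em450, 60 s delta.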
RE007 growth inh: qHTS Assay for Inhibitors of the HIV-1 protein Vpr. 360,000 tested, 0.21% active. S. pombe RE007 Vpr strain, BacTiter-Glo ATP luminescence, 24 h; control for the full effect not named in the record. AID 651644, 2012. Potency, µM (series often up to 92.2 µM), for the others: at the highest dose activity change, negative = less growth; active = well fitted falling curve with a large enough effect; inconclusive = small, poorly fitted or top-dose-only effect; inactive = no such curve, though single readings can be large or run the other way;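 also: % is scaled to controls: 0 for no effect and ±100 for the full control effect; nearly all actives have a fitted effect of over 50% in size; the assay follows cell death caused by Vpr and the record does not say whether a fall means rescue or toxicity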
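Fission yeast strain RE007, carrying one chromosomally integrated HIV-1 vpr copy, was seeded at OD 0.01 in PMG+AL medium with 23 nL pinned compound. After 24 h at 30 °C and 99% humidity, viability was read by BacTiter-Glo luminescence.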
MARV entry inh: qHTS for inhibitors of binding or entry into cells for Marburg Virus. 300,000 tested, 1.8% active. Marburg virus pseudotyped entry inhibition, cell reporter; control for the full effect not named in the record; about a third of the inactives were read at about 46 µM. Potency, µM (series often up to 37.8 µM), for the others: at the top dose activity change, negative = inhibition, actives largely listed as inhibitors; active = well fitted inhibition curve with a large enough effect; inconclusive = small, poorly fitted or top-dose-only effect, or effect the other way; inactive = flat fitted curve, though single readings scatter; tested in HEK293 cells; about a fifth of its hits are not listed in these tables; also: % is scaled to controls: 0 for no effect and ±100 for the full control effect; luciferase read-out
Active calls of the source: *; ? = inconclusive; · = not tested or not shown; & = joins results of further samples; [ ] = dose if it differs, or a comment. Unless noted, calls follow the shape of the dose curve; as a rule, active means well fitted rising curve with a large enough effect; inconclusive means small, poorly fitted or top-dose-only effect; inactive means no such curve, though single readings can be large or run the other way. Potency is read from the fitted curve at half-maximal effect. Rows were taken by chance; 4.7% or so of the library scored in one or more.

SMILES	Lassa entry inh	StopGo reporter	Cruzain noTriton	NS1 function inh	SARS PLpro yeast	Cruzain inh Det	RE007 growth inh	MARV entry inh
Cc1ccc(/C=N/NC(=O)c2cccnc2)s1	-16%[46.1 µM]	10%	·	-5%	0%	·	-10%	1%[46.1 µM]
Cn1cc(C(=O)c2ccc(F)cc2)cc1-c1nc2ccccc2n1C	-17%	?	-14%	-40%	-8%	-6.2%	-13%	10%
COCCn1cnnc1SCC(=O)Nc1cccc(S(=O)(=O)N2CCCCC2)c1	-1%	-1%	·	·	0%	·	-17%	?
COC(=O)c1cc2c(=O)n3cccc(C)c3nc2n(Cc2cccnc2)c1=N	·	·	12%	-3%	0%	-3.1%	·	0%
Clc1ccc(OCc2nn3c(-c4ccco4)nnc3s2)c(Cl)c1	-21%	17%	-29%	-27%	-6%	-4.4%	12%	-13%
COCc1ccc(CN2CCCC(CCC(=O)NCc3ccc(C)o3)C2)o1 (centres undefined)	-2%[46.1 µM]	13%	·	-1%	0%	·	-1%	-11%[46.1 µM]
O=C(CC(c1cccs1)N1Cc2ccccc2C1=O)Nc1ccc(F)cc1 (centres undefined)	2%[46.1 µM]	18%	-2%	·	·	-0.4%	·	·
COc1ccc2ccccc2c1/C=N/N1C(=O)CSC1=S	?	-9%	·	·	-2%	·	-7%	6%[46.1 µM]
O=C(COC(=O)[C@@H]1CCCN1S(=O)(=O)c1ccc(Cl)cc1)NC1CC1	-29%	-22%	·	20%	-2%	·	-7%	-4%
Cc1ccc(C2=NS(=O)(=O)N(C)C(C(=O)NCc3cccs3)=C2)cc1	·	-8%	·	1%	-14%	·	-4%	·
O=C(CCC(=O)Nc1ccc(Br)cc1)N/N=C/c1ccc(F)cc1	·	-19%	·	5%	1%	·	6%	·
CCN(CC)CCCn1c2c(c(SCC(=O)Nc3ccc4c(c3)OCCO4)nc1=O)CCC2	?	0%	·	·	1%	·	-16%	?
COc1ccc(-c2noc(CSc3nc4sc(C)c(C)c4c(=O)n3-c3ccccc3)n2)cc1	-12%	-17%	7.9µM*	6%	10%	-3.3%	-7%	-2%
COc1cccc(NC(=S)N(Cc2ccco2)C(C)c2ccco2)c1 (centres undefined)	-13%	-11%	-4%	1%	8%	-5.4%	-9%	?
Cc1cccc(C(=O)Nc2ccccc2C(=O)Nc2ccc(C(=O)O)cc2)c1	12%[46.1 µM]	2%	·	4%	-3%	·	-5%	32%[46.1 µM]
CC1=CC(=O)c2ccccc2C1=O	4%	-13%&-13%&-23%	-4%&1%&-8%	-22%	-24%	1.8%&3.7%&1.3%	-25%[18.4 µM]	26%&26%
COc1ccc(C2Nc3ccccc3C(=O)N2c2ccccc2)cc1CSc1ccccn1 (centres undefined)	-5%	-20%	?	7%	-3%	-26%	9%	7%
CC(Sc1nnc(C2CC2)n1-c1ccccc1)C(=O)N1CCNC1=O (centres undefined)	15%	-8%	·	·	2%	·	0%	19%[46.1 µM]
CCOC(=O)c1sc2nc(CC(=O)OC)nc(NCCN(CC)CC)c2c1C	-15%	-11%	?	4%	7%[6.58 µM]	-9.2%	-2%	?
CCC(C)NC(=O)Cn1cnc2sc(C)c(S(=O)(=O)N3CCN(c4ncccn4)CC3)c2c1=O (centres undefined)	13%[46.1 µM]	-10%	·	·	-1%	·	0%	4%[46.1 µM]
Cc1ccsc1CN1CCc2nc(N3CCN(c4ccccc4F)CC3)ncc2C1	-6%[46.1 µM]	?	-13%	·	·	1.6%	·	·
Cc1nnc(NC(=O)CN2CCN(Cc3ccc(F)cc3Cl)CC2)s1	·	-17%	·	14%	5%	·	-6%	·
CCCCNC(=S)N/N=C/c1sccc1C	?	0%	·	·	18%	·	-1%	?
CCOc1ccc(CCNC(=O)CSc2cc(=O)n(CC)c3ccccc23)cc1OCC	?	-5%	16%	-13%	11%	-1.3%	4%	-6%
CCN(CC)CCCN(Cc1cc2cc(OC)ccc2[nH]c1=O)C(=O)Nc1ccc(F)cc1	10%	?	-9%	4%	4%	-0.6%	-5%	-29%&-29%

Look-ups from the list.
COC(=O)c1cc2c(=O)n3cccc(C)c3nc2n(Cc2cccnc2)c1=N in MARV entry inh is listed with 0%
COc1ccc(C2Nc3ccccc3C(=O)N2c2ccccc2)cc1CSc1ccccn1 (centres undefined) in Lassa entry inh is listed with -5%
CC1=CC(=O)c2ccccc2C1=O in SARS PLpro yeast is listed with -24%

The list goes on.
SMILES	Lassa entry inh	StopGo reporter	Cruzain noTriton	NS1 function inh	SARS PLpro yeast	Cruzain inh Det	RE007 growth inh	MARV entry inh
O=c1[nH]c2ccccc2n2c(-c3ccncc3)nnc12	5%	-12%	-3%	-2%	-1%	0.6%	13%	3%[46.1 µM]
O=C(COc1ccc(F)cc1)N1CCCc2ccccc21	·	14%	·	-2%	-14%	·	-7%	·
COc1ccc(S(=O)(=O)c2nnn(-c3cc(Cl)c(OC)cc3OC)c2C)cc1	?	0%	7%	·	·	0.0%	·	-18%[46.1 µM]
O=S(=O)(/N=C(/Nc1nc2ccccc2s1)c1ccccc1)c1ccccc1	15%	46%[activator]	·	·	-2%	·	19%	5%
N#CC1(c2ccccc2)CCC(=O)N1Cc1ccccc1 (centres undefined)	9%[46.1 µM]	-19%	·	-5%	0%	·	-15%	?
Cc1ccc(CN(Cc2ccco2)C(=O)c2ccc(OCC(C)C)cc2)cc1	-16%[46.1 µM]	-19%	?	·	·	-11%	·	15%[46.1 µM]
O=C(CN(CCc1ccccc1)C(=O)CN1C(=O)COc2ccccc21)NCc1ccco1	-17%	0%	13%	-3%	-4%	0.8%	1%	-7%
Cc1ccc2cccc(OCc3cccc([N+](=O)[O-])c3)c2n1	7%[46.1 µM]	-16%	·	-6%	1%	·	-20%	-1%[46.1 µM]
Brc1ccc2[nH]c3c(N4CCc5ccccc5C4)ncnc3c2c1	-28%	0%	?	-12%	4%	-18%	-8%	?
O=C(Nc1ccc2ncccc2c1)c1ccccc1Cl	·	-6%	·	11%	-1%	·	12%	·
COC(=O)c1ccc(NC(=O)Nc2ccc(OC)cc2)cc1	-16%[46.1 µM]	7%	·	-13%	0%	·	7%	?
COc1ccc(CN2CCc3c([nH]c4ccccc34)C2)cc1Br	·	-28%	·	-10%	5%	·	-8%	·
N[C@@H](Cc1ccc(O)cc1)c1nnc([C@H](CO)NC(=O)C2CCNCC2)o1	·	-22%	·	-1%	0%	·	8%	·
CCN1C(=O)CC(Sc2ccccc2C(=O)O)C1=O (centres undefined)	14%	-6%	-1%	8%	-1%	3.9%	5%	1%
CCC(Oc1ccccc1)C(=O)Nc1cccc(OCc2cc(=O)n3cccc(C)c3n2)c1 (centres undefined)	-5%[46.1 µM]	?	-2%	·	·	-0.8%	·	·
Cc1cc(C(=O)N/N=C/c2ccc[nH]2)no1	28%	12%	-14%	14%	-27%	-8.3%	-14%	2%
O=C(NCCOc1ccccc1F)C1CCC(=O)N(CC2CCCCC2)C1 (centres undefined)	·	0%	·	-2%	4%	·	4%	·
O=C(NC(=S)NCc1ccccc1)c1cccc(Cl)c1	?	39%[activator]	·	20%	-6%	·	-24%	16%
Cc1nc(C#N)c(NCc2ccc3c(c2)OCO3)o1	0%	5%	7%	-3%	4%	1.3%	9%	?
O=C(CCc1nnc(-c2ccc3c(c2)OCO3)o1)NC(c1cccnc1)C(F)(F)F (centres undefined)	5%[46.1 µM]	7%	·	-5%	2%	·	-5%	-1%[46.1 µM]
Nc1nc(SCC(=O)Nc2cccc([N+](=O)[O-])c2)n[nH]1	13%[46.1 µM]	-9%	·	·	-1%	·	13%	8%[46.1 µM]
Cc1cc(C)c(NC(=O)C(=O)NCc2ccco2)c(C)c1	15%	-2%	·	·	1%	·	14%	-13%[46.1 µM]
CCCn1nnc(NC(=O)/C=C/c2ccccc2)n1	-23%	41%[activator]	·	-8%	-1%	·	-11%	25%[46.1 µM]
COc1ccccc1NC(=O)CCCC(=O)OCC(=O)c1ccc(F)cc1	7%[46.1 µM]	-18%	·	-15%	-2%	·	-11%	17%[46.1 µM]
O=[N+]([O-])c1ccc(CNc2ccc(Cl)cc2)s1	3.5µM*	?	·	-59%	-19%	·	-27%	?
SMILES	Lassa entry inh	StopGo reporter	Cruzain noTriton	NS1 function inh	SARS PLpro yeast	Cruzain inh Det	RE007 growth inh	MARV entry inh
COC(=O)COc1ccc2cccc(-n3cnnn3)c2c1	3%	4%	·	·	4%	·	8%	13%[46.1 µM]
CCc1ccccc1NS(=O)(=O)c1ccc(OC)c2ncccc12	?	7%&6%	-12%	-5%	-12%	0.0%	-1%	·
O=C(Cc1ccc(Cl)cc1)Nc1ccc(S(=O)(=O)N2CCOCC2)cc1	-2%	11%	·	-4%	-1%	·	6%	8%[46.1 µM]
COc1ccc2nc(NC(=O)CSc3nnc4n3C(C)(C)Cc3ccccc3-4)sc2c1	-5%	-16%	?	-35%	1%	-6.9%	26%[3.69 µM]	-4%&25%
Cc1sc2nc(-c3cccnc3)nc(Cl)c2c1-c1ccccc1	7%	-1%	-20%	-29%	-17%	0.2%	2%	8%
CC(=O)c1cccc(NS(=O)(=O)c2cc(-c3onc(C)c3C)ccc2C)c1	-19%[46.1 µM]	6%	6%	·	·	-5.8%	·	·

Entries listed so far containing a COOH group (two):
SMILES	Lassa entry inh	StopGo reporter	Cruzain noTriton	NS1 function inh	SARS PLpro yeast	Cruzain inh Det	RE007 growth inh	MARV entry inh
Cc1cccc(C(=O)Nc2ccccc2C(=O)Nc2ccc(C(=O)O)cc2)c1	12%[46.1 µM]	2%	·	4%	-3%	·	-5%	32%[46.1 µM]
CCN1C(=O)CC(Sc2ccccc2C(=O)O)C1=O (centres undefined)	14%	-6%	-1%	8%	-1%	3.9%	5%	1%
